Lassa entry inh: inhibitors of Lassa virus binding or cell entry. Lassa virus pseudotype entry inhibition, cell reporter; control for the full effect not named in the record. Potency, µM (series often up to 37.9 µM), without a hit: at the top dose activity change, negative = inhibition, actives largely listed as inhibitors. hit rate 1.2% among 300,000. AID 540256; active means well fitted inhibition curve with a large enough effect; inconclusive means small, poorly fitted or top-dose-only effect, or effect the other way; inactive means flat fitted curve, though single readings scatter; tested in HEK293 cells; further: on the % scale 0 is the no-effect control and ±100 the full control effect; nearly all actives have a fitted effect of over 50% in size; luciferase read-out
Cruzain Triton: cruzain (T. cruzi) inhibition with detergent; purified cruzain, Z-FR-AMC fluorescence, 0.01% Triton; P25779; hit rate 0.43% among 200,000; Potency, µM, without a hit: max response, negative = inhibition, actives largely listed as inhibitors; AID 1478;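 further: plate controls were neutral wells for no effect and buffer without enzyme for full effect; nearly all actives have a fitted effect of over 40% in size; top concentration of the series not given in the record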
Target sequence (P25779 123-467 limits assumed): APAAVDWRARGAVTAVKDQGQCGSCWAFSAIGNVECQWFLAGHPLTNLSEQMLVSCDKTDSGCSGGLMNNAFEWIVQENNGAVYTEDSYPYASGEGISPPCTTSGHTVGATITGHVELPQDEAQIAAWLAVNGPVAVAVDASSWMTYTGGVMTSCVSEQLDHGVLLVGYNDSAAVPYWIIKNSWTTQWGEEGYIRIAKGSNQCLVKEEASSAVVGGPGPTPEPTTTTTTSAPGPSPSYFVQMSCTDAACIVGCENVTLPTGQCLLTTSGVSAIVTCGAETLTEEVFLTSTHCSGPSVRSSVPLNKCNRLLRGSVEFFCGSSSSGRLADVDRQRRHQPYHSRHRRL
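Compounds were screened in titration against cruzain (1.5 nM) with 0.01% Triton X-100 to counter colloidal aggregation. Activity was the AMC fluorescence increase over 60 s after adding 2 uM Z-FR-AMC at pH 5.5.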
Cruzain noTriton: inhibitors of Trypanosoma cruzi cruzain without detergent. hit rate 2.3% among 200,000. AID 1476. P25779. purified cruzain, Z-FR-AMC fluorescence, no detergent. Potency, µM, inactives show max response, negative = inhibition, hits mostly inhibitors;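 further: plate controls were enzyme without inhibitor for no effect and buffer without enzyme for full effect; nearly all actives have a fitted effect of over 40% in size; top concentration of the series not given in the record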
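Detergent-free condition (0.00005% Triton X-100) in acetate buffer pH 5.5 with DTT. 1.5 nM enzyme and compound were pre-mixed 15 min, then 2 uM Z-FR-AMC substrate added; reaction progress from fluorescence change between first and third reads (60 s).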
Marburg entry inh: Marburg virus entry inhibition; Potency, µM (top dose mostly 37.8 µM), for the others: at the top dose activity change, negative = inhibition, usual class: inhibitors; hit rate 1.8% among 300,000; Marburg virus pseudotyped entry inhibition, cell reporter; control for the full effect not named in the record; about a third of the inactives were read at about 46 µM; active = well fitted inhibition curve with a large enough effect; inconclusive = small, poorly fitted or top-dose-only effect, or effect the other way; inactive = flat fitted curve, though single readings scatter; tested in HEK293 cells; about a fifth of its hits are not listed in these tables; further: on the % scale 0 is the no-effect control and ±100 the full control effect; luciferase read-out
RE007 growth inh: less growth of the S. pombe RE007 Vpr strain. hit rate 0.21% among 360,000. AID 651644. Potency, µM (top dose mostly 92.2 µM), inactives show top-dose activity change, negative = less growth. S. pombe RE007 Vpr strain, BacTiter-Glo ATP luminescence, 24 h; control for the full effect not named in the record; active = well fitted falling curve with a large enough effect; inconclusive = small, poorly fitted or top-dose-only effect; inactive = no such curve, though single readings can be large or run the other way;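 further: on the % scale 0 is the no-effect control and ±100 the full control effect; nearly all actives have a fitted effect of over 50% in size; the assay follows cell death caused by Vpr and the record does not say whether a fall means rescue or toxicity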
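Fission yeast strain RE007, carrying one chromosomally integrated HIV-1 vpr copy, was seeded at OD 0.01 in PMG+AL medium with 23 nL pinned compound. After 24 h at 30 °C and 99% humidity, viability was read by BacTiter-Glo luminescence.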
SARS PLpro yeast: blocks SARS-CoV papain-like protease in a yeast assay; Potency, µM (series often up to 32.9 µM), inactives show at the highest dose activity, positive = growth rescue; S. cerevisiae expressing SARS-CoV PLpro, growth rescue; control for the full effect not named in the record; AID 485353; hit rate 0.19% among 330,000; active means well fitted rising curve with a large enough effect; inconclusive means small, poorly fitted or top-dose-only effect; inactive means no such curve, though single readings can be large or run the other way; further: 0% is about no effect; nearly all actives have a fitted effect of over 55% in size; growth read by luminescence after 48 h
NS1 function inh: inhibitors of influenza NS1 protein function | S. cerevisiae slowed by influenza A NS1, growth recovery by OD600 | Potency, µM (series often up to 46.1 µM), for inactives: top-dose activity, positive = more growth | hit rate 0.4% among 270,000 | AID 2326; active means well fitted rising curve with a large enough effect; inconclusive means small, poorly fitted or top-dose-only effect; inactive means no such curve, though single readings can be large or run the other way; further: nearly all actives have a fitted effect of over 50% in size
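Read-out: OD600 growth recovery of NS1-expressing budding yeast. Cells grown overnight at 30C in -URA glucose medium, washed, resuspended and diluted 1:100 in 2% galactose assay medium, pH 6.0. Same strain lacking NS1 served as positive control.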
StopGo reporter: FMDV 2A StopGo reporter, luciferase signal; human cells with a luciferase reporter of 2A StopGo recoding; control for the full effect not named in the record; Potency, µM (top dose mostly 57.9 µM), without a hit: at the highest dose signal change, negative = less light; hit rate 1.2% among 410,000; active = well fitted falling curve with a large enough effect; inconclusive = small, poorly fitted or top-dose-only effect; inactive = no such curve, though single readings can be large or run the other way; tested in HEK293T cells; further: on the % scale 0 is the no-effect control and ±100 the full control effect; nearly all actives have a fitted effect of over 45% in size; luciferase light after 4 h
* marks the source's active call; other numbers are inactive results; ? = inconclusive; · = no result given; [ ] = dose if it differs, or a comment. Unless noted, the call rests on the fitted dose curve; in most records, active means well fitted curve in the direction sought with a large enough effect; inconclusive means small, poorly fitted or top-dose-only effect, or another doubt; inactive means no such curve, though single readings can be large; an effect the other way counts as inactive or inconclusive. Potency means the concentration at half of the fitted maximal effect. Compounds were not picked by outcome; 4.7% or so of the library scored in one or more.

SMILES | Lassa entry inh | Cruzain Triton | Cruzain noTriton | Marburg entry inh | RE007 growth inh | SARS PLpro yeast | NS1 function inh | StopGo reporter
COc1ccc(OC)c(NC(=O)C2CCN(c3nc(C)cc(C)n3)CC2)c1 | -8% | 2.8% | 3% | -16% | 2% | 5% | -1% | -16%
CCN(CC(=O)Nc1ccc(NC(C)=O)cc1)C(=O)c1ccc(NC2CC2)c([N+](=O)[O-])c1 | -4% | · | · | ? | -1% | -4% | · | 17%
O=C(O)c1cccc(CSc2ncn[nH]2)c1 | · | · | · | · | 5% | -1% | 3% | 3%
O=C(COc1ncnc2ccccc12)N1CCN(S(=O)(=O)c2ccccc2)CC1 | -6% | -0.6% | 0% | ? | -15% | 0% | -3% | 9%
Cc1ncc(CN2CCCC(C(=O)Nc3ccc(-n4ccnc4C)cc3)C2)cn1 (configuration not stated) | -1%[46.1 µM] | · | · | -3%[46.1 µM] | -16% | 0% | -6% | 11%
CNC(=O)COC(=O)CCC(=O)c1ccc(Cl)cc1 | ? | · | · | 5%[46.1 µM] | -12% | -1% | · | -10%
Cc1cc(C(=O)Nc2ccccn2)cs1 | ? | -0.9% | -8% | ? | -18% | -16% | -3% | -6%
O=c1c2nnn(-c3cccc(F)c3)c2ncn1Cc1ccccn1 | 3%[46.1 µM] | · | · | 2%[46.1 µM] | 11% | 2% | · | -10%
CN(C)/N=C/C=C1\CC/C(=C\c2ccc(Br)cc2)C1=O | -25% | -0.6% | 22% | ? | -23% | -6% | -6% | 31%[activator]
COc1cc(CNc2ccc(N3CCN(C(C)=O)CC3)cc2)ccc1OCc1ccc(F)cc1 | -7% | · | · | ? | -15% | -2% | 2% | -16%
CCOC(=O)c1c(NC(=O)CSc2ncccn2)sc2c1CCN(Cc1ccccc1)C2 | ? | -6.5% | -6% | 16µM* | -12% | 10% | -5% | ?
O=C(O)CCC(=O)NCc1ccc2[nH]c3c(c2c1)CCCC3 | · | -0.1% | ? | · | 1% | 3% | 8% | -8%
Cc1cccc(-n2c3nc(=O)n(C)c(=O)c-3cc3ccc(Cl)cc32)c1C | -7%[46.1 µM] | -1.3% | -1% | 16%[46.1 µM] | · | · | · | -5%
Cc1cc(C)c2c(n1)nn1c(C)c(CCC(=O)NCc3ccccc3Cl)c(C)nc21 | 11%[46.1 µM] | -0.6% | -8% | 25%[46.1 µM] | · | · | · | 10%
CS(=O)(=O)N1CCc2cc(C(=O)Nc3cccc([N+](=O)[O-])c3)ccc21 | 8% | · | · | 0% | 1% | 4% | 3% | 2%
Nn1cnnc1N/N=C\c1ccc(-c2ccccc2[N+](=O)[O-])o1 | 14µM* | 20µM* | -7% | ? | -9% | -24% | 2% | 1%
COc1ccc(-c2cccc(NS(=O)(=O)c3cc([N+](=O)[O-])c(C)c([N+](=O)[O-])c3)c2)nn1 | -8% | · | · | 2% | -13% | -2% | · | 8%
CSc1ccc(-c2c(C#N)c(N)nc3c2CCCC3)cc1 | 2% | 41%[activator] | ? | 1% | 0% | -5% | -5% | 0%
CC1=C(C(N)=O)C(c2ccccc2)n2nc(-c3cccs3)nc2N1 (configuration not stated) | · | -0.1% | -16% | · | 23% | 7% | -2% | -11%
O=C(COc1ccccc1F)Nc1ccccc1OCc1cc(=O)n2ccccc2n1 | 1%[46.1 µM] | 4.9% | -10% | · | · | · | · | 12%
CCOc1ccc(CN2CCC(C(=O)Nc3cccc(-c4ccn[nH]4)c3)CC2)cc1Cl | · | · | · | · | -2% | -2% | 12% | ?
Cc1oc(C(C)(C)C)cc1C(=O)N1CCN(c2ccc(C(F)(F)F)cn2)CC1 | · | · | · | · | -12% | 0% | 1% | -20%
CCC(=O)N1CCc2cc(CNC(=O)c3ccc(C#N)cc3)ccc21 | 3%[46.1 µM] | 1.2% | -18% | · | · | · | · | 0%
CCCCn1c(SCC(=O)Nc2ccc(NC(C)=O)cc2)nc2ccccc2c1=O | ? | · | · | -2%[46.1 µM] | -3% | 2% | -3% | -7%
COCCNC(=O)c1ccccc1NC(=O)c1ccc(OC)c(OC)c1 | ? | 2.7% | -4% | 12% | -9% | -1% | -38% | -2%
O=C(OCC(=O)N(CCc1ccccc1)Cc1ccccc1)c1cc(S(=O)(=O)N2CCOCC2)ccc1F | 2% | · | · | 3% | 23% | -7% | · | ?
Cc1ccc2nc(SCC(=O)Nc3ccccc3N3CCOCC3)c(C#N)cc2c1 | ? | 2.5% | 6% | ? | 16% | 5% | 1% | 0%
C#CCOc1c(Cl)cc(/C=N/O)cc1OC | 20% | -4.2% | -2% | 1% | -9% | -15% | 10% | -23%
CC(C)CCNC(=O)CN(C)S(=O)(=O)c1cccc2nsnc12 | -7% | 4.3% | -1% | ? | 6% | 9% | -17% | -12%
COc1ccc(S(=O)(=O)Nc2ccccn2)cc1C(=O)Nc1ccccc1 | 15% | · | · | 2% | -26% | -1% | 8% | 20%
NS(=O)(=O)c1ccc(NNC(=O)c2cccs2)cc1 | 2% | · | · | ? | 2% | -11% | -2% | 4%
CCC1(C)Cc2nc(Cl)c(C#N)cc2CO1 (configuration not stated) | · | · | · | · | 2% | -5% | 1% | -22%
CCOc1cc(S(=O)(=O)NCc2ccccn2)c(C)cc1C | · | 1.2% | -8% | -2% | · | 3% | -6% | ·
O=C(NC(=S)Nc1cc(C(F)(F)F)ccc1N1CCOCC1)c1ccc(-c2cccc(Cl)c2)o1 | 17% | -5.9% | 10µM* | -1% | 7% | 13% | 7% | -8%
COc1c(F)c(F)c(C(=O)Nc2c(C)cc(Br)cc2C)c(F)c1F | · | · | · | · | 9% | 2% | 3% | -1%
Cc1nn(C(C)C(=O)Nc2cccc(F)c2)c(=O)c2c1sc1ccccc12 (configuration not stated) | 19%[46.1 µM] | -7.4% | ? | 5%[46.1 µM] | · | · | · | -1%
O=C(Nc1noc2ccccc12)c1ccc(F)cc1 | 13%[46.1 µM] | -1.8% | 1% | ? | · | · | · | ?
CS(=O)(=O)N1N=C(c2ccco2)CC1c1ccco1 (configuration not stated) | · | · | · | · | -2% | -1% | 17% | 12%
O=C(O)C1(Nc2ccccc2Cl)CCCC1 | 16%[46.1 µM] | · | · | -3%[46.1 µM] | 9% | · | · | 9%
COc1ccc(NC(=O)c2ccc(NC(=O)CN3CCC(C(N)=O)CC3)cc2)cc1 | 29% | · | · | 5% | -11% | 3% | · | 16%
COc1cccc(NC(=O)c2cccc(C)c2[N+](=O)[O-])c1 | 19%[46.1 µM] | · | · | ? | -7% | 1% | 0% | 17%
O=C(CN1CCC(n2nnc3ccccc32)CC1)NCc1cccs1 | 12% | -0.5% | 6% | -8% | 5% | 1% | -2% | -6%
COc1ccc(NC(=O)c2ccc(-c3ccccc3)cc2)cc1S(=O)(=O)N1CCOCC1 | -3% | · | · | -8%[46.1 µM] | 0% | -6% | -6% | 3.5µM*
O=C(O)C1(c2ccc(Cl)cc2)CCC1 | 2% | 3.6% | -5% | -13% | 1% | 0% | -14% | -7%
O=c1c2c3c(sc2n(Cc2ccc(F)cc2Cl)c(=O)n1-c1ccc(Cl)cc1)CCC3 | 18%[46.1 µM] | 0.0% | 17% | 8%[46.1 µM] | · | · | · | -11%
COc1cc(C(C)=O)ccc1OCC(=O)N(CCC1=CCCCC1)c1c(N)n(Cc2ccccc2)c(=O)[nH]c1=O | -15% | · | · | 29% | -1% | ? | · | -13%
CCOc1ccc2[nH]cc(C(=O)NCc3ccccc3)c(=O)c2c1 | · | · | · | · | 1% | 11% | 15% | -8%
CCn1c(=O)cc(SCC(=O)NCc2ccc(OC)cc2OC)c2ccccc21 | -23%[46.1 µM] | -1.6% | -4% | 5%[46.1 µM] | · | · | · | 2%
O=C(COC(=O)CCSc1ccccc1)Nc1ccc(F)cc1Cl | -1% | ? | -12% | 14% | ? | -3% | -32% | 1%
C=CCn1c(O)c(N=Nc2c(C)n(C)n(-c3ccccc3)c2=O)c(=O)[nH]c1=S | ? | -10% | -5% | -20% | -10% | 8% | -18% | -19%
COc1cccc(NC(=O)C2CCC(CNS(=O)(=O)c3cccs3)CC2)c1 (configuration not stated) | 9% | · | · | -11% | 5% | -3% | · | -8%
Nc1cc(=O)n(Cc2ccccc2)c(=O)n1Cc1ccccc1 | 14% | · | · | 17% | 14% | · | · | -3%
Cc1ccc(NC(=O)CN2CCCCCC2)cc1Br | -24% | · | · | ? | ? | 6% | · | 2%
Fc1cccc2sc(N3CCOCC3)nc12 | ? | -1.7% | 10% | ? | -20% | 1% | 1% | 38%[activator]
CC(C)OCC1Cn2c(nc3c2c(=O)n(C)c(=O)n3C)O1 (configuration not stated) | -9% | · | · | 0%[46.1 µM] | -4% | 0% | 4% | 11%
CCN1CCN(C(=O)c2ccc3c(c2)N(Cc2ccccc2F)C(=O)c2ccccc2S3=O)CC1 (configuration not stated) | 1%[46.1 µM] | 2.7% | 9% | 12%[46.1 µM] | · | · | · | -10%
CC(C)OC(=O)c1cc(NC(=O)C2C3C=CC(O3)C2C(=O)O)cc(C(=O)OC(C)C)c1 (configuration not stated) | 4% | · | · | 14%[46.1 µM] | -17% | 1% | 3% | -14%
Cc1cc(C)c(-c2csc(NC(=O)COC(=O)c3ccc4c(c3)OCO4)n2)c(C)c1 | 16% | -3.7% | ? | 32% | 0% | 8% | 13% | -24%
CCOC(=O)C1=C(C)N=c2s/c(=C/c3ccccc3)c(=O)n2C1c1ccc(OC)c(OC)c1 (configuration not stated) | -17% | -4.4% | ? | -9% | 0% | 3% | 3% | ?
COc1ccc(NC(=O)Cc2c(C)n(C(=O)c3ccc(Cl)cc3)c3ccc(OC)cc23)cc1 | -4%[46.1 µM] | -2.5% | ? | ? | 6% | -17% | 11% | 5%
The list goes on.
SMILES | Lassa entry inh | Cruzain Triton | Cruzain noTriton | Marburg entry inh | RE007 growth inh | SARS PLpro yeast | NS1 function inh | StopGo reporter
COc1ccc(S(=O)(=O)NCCOc2ccccc2)cc1OC | -25%[14.3 µM] | 1.0% | -18% | 1% | -9% | 3% | 5% | 29%
CCN(c1ccc(OC)cc1)c1ncnc2nc[nH]c12 | · | 1.1% | -3% | · | -1% | 3% | 6% | 0%
Cc1cc(C)c2nc(C)cc(Nc3ccc(C(=O)NCCO)cc3)c2c1 | -28%[46.1 µM] | · | · | 11µM* | -3% | 0% | 3% | -24%
CC(=O)NC(CCS(C)(=O)=O)C(=O)N1CCc2ccccc21 (configuration not stated) | 16% | 2.7% | -14% | 11% | 7% | -1% | 12% | ·

Screens from PubChem.
